BJeLR viability: kills HRASV12-expressing BJeLR cells. BJeLR (HRASV12) viability, CellTiter-Glo ATP luminescence, 48 h; reference of the scale not given here. inhibition, % (no concentration beside the values). 300,000 tested, 0.17% active. AID 1554;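 active = replicate mean above 50%; inconclusive = above 50% but judged a plate artefact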;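 note: 50 nL library stock added to about 25 µL; numbers are from one replicate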
RN4220 kill: S. aureus RN4220 growth inhibition | AID 1259311 | 330,000 tested, 0.33% active | inhibition, % (no concentration beside the values) | OD600, 16 h;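 active = z-score of -3 or lower and OD600 up to 0.18 on both plates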;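 note: plate controls were untreated cells for no effect and reference antibiotic for full effect; stock transfer was 100 nL into about 80 µL; one replicate is shown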
PrP 5UTR inh: suppresses PrP 5' UTR mRNA reporter expression; AID 488862; 340,000 tested, 0.35% active; inhibition, % (concentration not given with the values); cell-based PrP 5' UTR mRNA reporter, plate reader;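 active = every replicate at 50% or more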;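 note: 0 = median of the neutral control wells; tested in H4 reporter cells; numbers are from one replicate; inactives centre near -14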
Sa ugtP lethal: kills S. aureus RN4220 lacking UgtP; S. aureus RN4220 ugtP deletion, OD600 growth, 16 h; some inactives read as strong as hits; growth inhibition, % (test concentration not listed); 330,000 tested, 0.54% active;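 active = z-score under -3 and OD600 up to 0.15 on both plates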;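 note: plate controls were untreated wells for no effect and antibiotic for full effect; wells of about 80 µL received 100 nL stock; the first replicate is given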
Autofluor counter: compound fluorescence in toxin protease inhibitor counterscreen; compound autofluorescence counterscreen, microsphere flow cytometry; stronger effect = higher value; fluorescence intensity (test concentration not listed); 360,000 tested, 3.1% active;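 active = at least 3 SD above the mean of all compounds, about 16000 in these data; inconclusive = too few beads counted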;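 note: 100 nL of 1 mM stock went into each well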
Mtb hypoxia inh: inhibitors of hypoxia-regulated fluorescent reporter in Mycobacterium tuberculosis; 300,000 tested, 0.1% active; M. tuberculosis hypoxia-regulated fluorescent reporter, fluorescence; fluorescence inhibition, % (no concentration beside the values);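 active = 35 to 45% if threefold the growth effect, above 45% if 1.5-fold the growth effect; inactive = the rest, general growth blockers included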;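 note: wells of about 50 µL received 100 nL stock; 0% = vehicle wells and 100% = reference inhibitor wells; whole bacteria with a GFP reporter of the hypoxia response; strong numbers were not always called active; many hits fall short of the cut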
Mtb hypoxia inh growth: second read-out of Mtb hypoxia inh, no call of its own (marks repeat the call); growth inhibition, %; measured here: M. tuberculosis growth (absorbance);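 0% = vehicle and 100% = reference antibiotic; read after six days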
* hit, by the source's call; ? = inconclusive; . = not tested or not shown.

A first look:
SMILES	BJeLR viability	RN4220 kill	PrP 5UTR inh	Sa ugtP lethal	Autofluor counter	Mtb hypoxia inh	Mtb hypoxia inh growth
Cc1cccc(C=NNC(=O)c2cc(C)nc3ccccc23)n1	.	1.9	.	2	.	9	5
CCCN1C(=O)/C(=C/c2ccc(OCC(=O)OCC)cc2)NC1=S	-4	8.3	31	-10	3315	-3	7
O=[N+]([O-])c1ccc(Oc2ncccn2)cc1	-5	0.8	.	5	6729	8	-12
O=C(Nc1ccc(Cl)cc1)N1CC1	.	4.1	-22	-5	3435	6	11
CC(=O)c1cnc2nc(SCc3ccc(C)cc3)nn2c1C	-5	0.4	-18	5	3110	6	-1

The list itself, repeating the preview:
SMILES	BJeLR viability	RN4220 kill	PrP 5UTR inh	Sa ugtP lethal	Autofluor counter	Mtb hypoxia inh	Mtb hypoxia inh growth
Cc1cccc(C=NNC(=O)c2cc(C)nc3ccccc23)n1	.	1.9	.	2	.	9	5
CCCN1C(=O)/C(=C/c2ccc(OCC(=O)OCC)cc2)NC1=S	-4	8.3	31	-10	3315	-3	7
O=[N+]([O-])c1ccc(Oc2ncccn2)cc1	-5	0.8	.	5	6729	8	-12
O=C(Nc1ccc(Cl)cc1)N1CC1	.	4.1	-22	-5	3435	6	11
CC(=O)c1cnc2nc(SCc3ccc(C)cc3)nn2c1C	-5	0.4	-18	5	3110	6	-1
CNC(=O)C(NC(=O)c1ccccc1)=C(C)C	1	5.2	-8	6	6238	2	10
N#Cc1cc(C(=O)c2cc(Br)ccc2O)cn(Cc2ccccc2)c1=O	5	-3.0	-18	9	6175	-7	5
COCCN(CCOC)c1nc(N)c2c(N)nc3c(c2c1C#N)CC(=O)N3Cc1ccc(Cl)cc1	-3	7.4	-2	-5	2602	3	5
COc1ccc(NS(=O)(=O)c2ccc(C)c(C(=O)N(C)CC(=O)Nc3cccc(OC)c3)c2)cc1	13	2.0	-20	2	?	-4	-2
O=C(CN1C(=O)C2CC=CCC2C1=O)Nc1nnc(SCc2ccc(F)cc2)s1 (centres undefined)	5	5.2	-5	4	3496	.	.
O=c1nc(NN=Cc2c[nH]c3ccccc23)cn[nH]1	.	6.9	.	4	.	14	13
COc1ccc(/C=C2/C(=O)N(Cc3ccccc3)N=C2C)cc1	-8	7.0	-7	-2	2422	3	0
CN(CC(=O)NCCc1ccc(S(N)(=O)=O)cc1)CC(=O)Nc1ccc(F)c(F)c1F	.	0.9	-28	0	3764	5	3
COc1ccc(Cl)c2sc(N(CCN(C)C)C(=O)c3ccc4c(c3)OCCO4)nc12	2	-9.7	-12	-10	?	17	2
CCOC(=O)c1c(NC(=O)c2ccc(Br)o2)sc2c1CCCC2	5	-2.6	-21	-7	11515	6	5
CSc1nc(C(=O)N2CCCC(C(=O)c3ccc(Cl)cc3)C2)cs1 (centres undefined)	0	4.3	-25	2	5285	1	-4
CCN(CC)CCCNc1cc2n(c(=O)n1)CCc1cc(OC)c(OC)cc1-2	9	-1.4	4	-4	4447	2	3
O=C(Nc1c(C(=O)O)[nH]c2ccccc12)c1cccc(C(F)(F)F)c1	-7	2.7	-11	-9	3687	6	3
Cc1ccc2oc(NC(=O)N3CCOCC3)cc(=O)c2c1	9	2.0	-45	10	6759	5	5
CN1C(=O)NC(=O)C(C)(C2=CCCCC2)C1=O (centres undefined)	-3	2.1	-51	6	5934	.	.
CCCSc1nc(N)nc(-c2cccs2)c1C#N	6	7.8	-10	8	2049	.	.
CCOC(=O)C1CCN(Cc2cnc(Oc3ccc(Cl)cc3C)s2)CC1	-6	2.0	-14	14	9321	-1	-2
Cc1ccc(NC(=O)CN(C)C(=O)c2cccnc2Nc2cccc(C(F)(F)F)c2)cc1	-7	32	-13	12	5534	11	5
COc1ccc(C(=O)NC2=NCCS2)c(OC)c1	13	5.0	-22	8	3444	2	10
CCN(CC(=O)NCCc1ccccc1)S(=O)(=O)c1ccccc1	-2	-2.8	-13	-6	5109	5	3

Next records follow.
SMILES	BJeLR viability	RN4220 kill	PrP 5UTR inh	Sa ugtP lethal	Autofluor counter	Mtb hypoxia inh	Mtb hypoxia inh growth
Cc1csc(NC(=O)CSc2nncs2)n1	-1	1.7	-25	2	6922	2	0
Cn1c(C(=O)N2CCc3ccccc3C2)cc2oc3ccccc3c21	7	4.6	-45	-3	2908	3	4
Cc1ccc(NC(=O)COC(=O)c2ccc3c(c2)C(=O)N(CCc2ccccc2)C3=O)c(C)c1	0	2.5	5	0	2654	3	9
CCOC(=O)c1nn(-c2ccccc2)c(=O)c(C#N)c1C	1	1.8	-3	-1	3526	-2	5
C/C(CC(=O)NCc1ccc(Cl)cc1)=N\NC(=O)COc1ccc(C)cc1Br	4	.	-13	.	4210	.	.
CCC(=O)Nc1ccc(C(=O)CSc2nnc(-c3cccnc3)o2)cc1	-4	3.2	-7	-2	3235	.	.
Cc1cccc(NC(=O)C(C)Oc2ccc(C)nc2[N+](=O)[O-])c1 (centres undefined)	.	2.6	-7	-6	7585	10	1
CCOC(=O)c1c(-c2ccc3ccccc3c2)csc1NC(=O)CCCC(=O)O	.	19	-1	34	6012	6	6
COc1cccc(C(=O)O/N=C(\N)c2ccncc2)c1OC	4	0.8	-65	5	1946	4	8
COC(OC)C12c3ccccc3C(c3ccccc31)C1C(=O)N(c3cccnc3)C(=O)C12 (centres undefined)	3	-1.4	2	-4	4723	3	-2
O=C(NCCc1csc(-c2cccnc2)n1)c1cccs1	-2	-11	-14	-2	7616	2	1
Cc1ccc(C)c(C(=O)CN2C(=O)NC3(CCCCCC3)C2=O)c1	.	2.8	-27	-1	5005	-1	2
C#CCOCCOCCOCCNc1nc(N2CCOCC2)nc(N2CCN(C(=O)[C@H]([C@@H](C)CC)n3cc([C@@H](N)CO)nn3)CC2)n1	1	.	-10	.	3917	.	.
CC(CCc1ccccc1)=NNC(=O)CC(=O)NCCc1ccccc1	.	2.8	.	5	.	14	-2
COc1ccc(N2CCN(S(=O)(=O)CCNC(=O)c3cccs3)CC2)cc1	2	1.2	-4	3	?	5	-1
Cc1[nH]n(CCC#N)c(=O)c1CC(=O)N1CCN(c2ccccc2)CC1	10	-9.8	-7	-10	2949	4	6
Cc1ccc(NCc2nnc(SCC(=O)Nc3nnc(C)s3)n2C)cc1	11	0.0	-17	7	2736	11	-2
O=S(=O)(Nc1ccccc1F)c1ccc(Cl)nc1	.	8.0	-31	0	3746	9	6
CCn1c2c(c(=N)c3c1CCC3)CCC2	-2	0.9	-8	7	2588	14	1
Cc1ccc(CN2CCC(CNC(=O)C3CCCN(c4ncnc5c4nc4n5CCCCC4)C3)CC2)cc1 (centres undefined)	7	1.0	5	1	6602	1	15
O=C(NC(Nc1ncccn1)C(=O)c1ccccc1)c1ccccc1 (centres undefined)	-2	2.5	-17	-4	2617	.	.
COc1ccc(/C=C(/NC(=O)c2ccc([N+](=O)[O-])cc2)C(=O)NC(C)(C)C)cc1	4	3.7	-48	13	4319	13	5
Cc1ccc(C)c(OCCCC(C)(C)C(=O)O)c1	1	.	-28	.	4445	.	.
CCOC(=O)/C=c1\s/c(=C\c2ccc(C(=O)OC)cc2)c(=O)n1CC(=O)Nc1ccccc1	4	.	-12	.	3391	.	.
CC(NC(=O)c1nc[nH]c1C(=O)NCc1ccc(CNC(=O)OC(C)(C)C)cc1)C(=O)OC(C)(C)C (centres undefined)	.	8.6	.	-7	.	4	11

Remaining list, next part:
SMILES	BJeLR viability	RN4220 kill	PrP 5UTR inh	Sa ugtP lethal	Autofluor counter	Mtb hypoxia inh	Mtb hypoxia inh growth
Cc1ccc(-c2csc(NC(=O)CSc3nc4ccccc4c(=O)n3CCCN(C)C)n2)cc1	10	-13	-6	-6	4414	.	.
CCOc1ccc(NC(=O)NCCN2C(C)CCCC2C)cc1 (centres undefined)	2	-3.6	-6	-1	17584*	3	2
Cc1ccccc1NC1=NC2(CCCC2)N=C(N)N1	2	3.7	-2	18	4150	-4	-2
C=CCOCC(O)Cn1c(N2CCCC2)nc2c1c(=O)n(C)c(=O)n2C (centres undefined)	-1	2.4	-20	15	3770	11	8
CCC(=O)N(CCC1(C(C)C)CCOC(C)(C)C1)C(C)c1cccs1 (centres undefined)	-13	4.2	-21	0	4349	-4	-5
COc1ccc(NC(=O)CCC(=O)NN=Cc2ccncc2)cc1	.	2.9	.	-1	.	2	13
O=c1c(C=NN2CCOCC2)c(O)n(-c2ccccc2)c(=S)n1-c1ccccc1	.	3.7	.	-4	.	6	6
O=Cc1cc2ccccc2nc1SCc1ccc(Cl)cc1	63*	-8.2	47	10	2284	.	.
CC(NC(=O)COc1ccccc1)C(c1cccs1)N1CCCC1 (centres undefined)	-3	5.5	-5	6	7649	12	-1
COc1ccc(-c2[nH]ncc2CN(C)Cc2ccccn2)c(OC)c1	-9	14	-8	7	3774	13	9
CC1CC(C)CN(C(=O)COC(=O)c2cccc(S(=O)(=O)N(C)c3ccccc3)c2)C1 (centres undefined)	.	2.3	-6	9	.	2	-3
CC(=NNC(=O)c1ccc(NS(=O)(=O)c2cccs2)cc1)c1ccc2c(c1)OCO2	.	8.5	.	-1	.	-1	9
CCCn1nnnc1SCC(=O)NC1CCCC1	-9	2.0	-14	3	3905	16	-1
O=C(Nc1nccs1)c1cn(-c2ccccc2)nc1-c1ccccc1	-4	32	-15	22	2933	.	.
CCOC(=O)c1ccc(N2C(=O)CC(N3CCC(C(=O)OCC)CC3)C2=O)cc1 (centres undefined)	8	7.7	-4	-1	2507	.	.
COC(=O)c1nc(NC(=O)c2ccc(C(C)(C)C)cc2)n[nH]1	0	0.6	6	3	3292	1	1
CCc1noc(C)c1C(=O)Nc1nc(-c2ccc(Cl)cc2Cl)c(C)s1	0	-4.2	7	4	4692	2	8
C/C(=C/C(=O)O)C(=O)Nc1cccc(C(F)(F)F)c1	-3	1.7	-6	2	2149	5	-9
Fc1ccc(COc2ccc(-c3nnco3)cc2)cc1	-1	2.6	.	4	.	-2	6
COc1ccc(C(=O)NC(=S)Nc2cccc3ncccc23)cc1[N+](=O)[O-]	-2	4.7	-25	23	6228	6	8
COc1cccc(NC(=O)CN(C)C(=O)c2cccc(S(=O)(=O)N3CCN(c4ccccc4)CC3)c2)c1	0	-0.9	-9	-3	4405	-16	-6
COc1ccc(Cn2nnc(C(=O)Nc3ccc(F)cc3)c2N)cc1	9	-0.2	-3	0	2962	11	10
O=C(COC(=O)c1cccc(N2C(=O)c3ccccc3C2=O)c1)Nc1ccccc1	0	1.7	-13	-4	2142	14	4
CCOc1ccc(Br)cc1/C(C)=N\NC1=NCCN1	11	.	-5	.	2701	.	.
CN(C)S(=O)(=O)c1ccc(N2CCCC2)c(C(=O)NNC(=O)c2ccccc2)c1	.	95*	-11	75	2769	-6	0

(further entries)
SMILES	BJeLR viability	RN4220 kill	PrP 5UTR inh	Sa ugtP lethal	Autofluor counter	Mtb hypoxia inh	Mtb hypoxia inh growth
O=C(Nc1ccc(Oc2ccccc2)nc1)C1CCCCN1Cc1ccco1 (centres undefined)	44	0.0	-6	11	4674	-2	-3
O=C(CSc1nc2ccccc2s1)NN=Cc1ccco1	.	4.8	.	3	.	6	13
COc1ccc(NC(=O)ON=C2CCCc3ccc(OC)cc32)cc1	.	5.7	.	1	.	4	9
CCOC(=O)c1c(NC(=O)c2cccs2)sc2c1CCCC2	2	-1.9	-26	6	2906	.	.
O=C(NCc1cccnc1)c1ccccc1[N+](=O)[O-]	-1	3.1	-11	4	1977	-7	-5
CN(C)c1ccc(CN(C(=O)COc2ccccc2)C2CCS(=O)(=O)C2)cc1 (centres undefined)	-1	-5.2	-18	-3	16811*	0	8
COc1ccc(S(=O)(=O)N2CCCCC2)cc1NC(=O)c1ccc(OC)c(OC)c1	.	1.6	-29	3	5311	1	2
CC(C)CCn1c(Cl)nc2c1c(=O)n(C)c(=O)n2C	5	6.4	-26	-7	5317	4	9
O=C(COC(=O)Cc1cccc(C(F)(F)F)c1)Nc1cccc2ccccc12	-12	9.1	-10	1	2081	3	5
CN(C)c1ccc(C(C(=O)NCC2CCCO2)N(Cc2ccccc2)C(=O)c2snc(C(N)=O)c2N)cc1 (centres undefined)	8	0.1	-6	5	5424	-2	10
CCCCn1c(=O)[nH]c2c(oc3ccccc32)c1=O	0	4.8	-20	7	4593	-7	-15
Cc1ccc(/C=N/n2c(=O)c(C(C)(C)C)nn3cnnc23)cc1	8	.	2	.	2312	.	.

Screening results (PubChem BioAssay)
